# VACV mCherry inh – inhibitors of vaccinia virus infection (mCherry reporter signal) | Vaccinia virus mCherry reporter infection, fluorescence; about a quarter of the inactives have no number | Potency, µM (top dose mostly 36.5 µM), for the others: top-dose activity change, negative = inhibition, most hits filed as inhibitors | actives 0.63% (n = 310,000); active = well fitted inhibition curve with a large enough effect; inconclusive = small, poorly fitted or top-dose-only effect; inactive = no such curve, though single readings can be large or run the other way; tested in A549 cells; also: nearly all actives have a fitted effect of over 35% in size; inactives centre near -10
# Vaccinia Venus – vaccinia inhibition (Venus reporter); Vaccinia virus Venus reporter expression, fluorescence; Potency, µM (top dose mostly 36.5 µM), inactives show at the highest dose activity change, negative = inhibition, usual class: inhibitors; actives 0.46% (n = 330,000); AID 720580; active means well fitted inhibition curve with a large enough effect; inconclusive means small, poorly fitted or top-dose-only effect; inactive means no such curve, though single readings can be large or run the other way; tested in A549 cells; also: nearly all actives have a fitted effect of over 30% in size; inactives centre near -10
# * = called active by the depositor; i = inactive; u = inconclusive; x = not tested or not shown; & = joins results of further samples; [ ] = remark or other dose. % is scaled to controls: 0 for no effect and ±100 for the full control effect; potency is read from the fitted curve at half-maximal effect.
molecule | VACV mCherry inh | Vaccinia Venus
Cc1ccccc1N=C(NOCc1ccc(Cl)cc1Cl)c1nonc1N | i | 0.5%
Cc1ccc(CN2C(=O)C(CC(C)C)Nc3ncnc(N4CCN(c5ccccn5)CC4)c32)cc1 (centres undefined) | 28.2µM* | u
O=C(CC1C(=O)N(Cc2ccccc2)C(=S)N1CCN1CCOCC1)Nc1ccc(F)cc1 (centres undefined) | -17.6% | -5.6%
O=C(O)c1ccc(N2CCOCC2)c(N2C(=O)C3C4C=CC(C4)C3C2=O)c1 (centres undefined) | i | -8.2%
Cc1ccccc1CN1CCN(CC(=O)NC(C)c2ccccc2)CC1 (centres undefined) | -18.0% | -16.2%
COc1ccc(C)cc1NC(=O)NC(C)c1c(-n2cccc2)sc(C)c1C (centres undefined) | -17.5% | -23.3%
Cc1ccc2nc(NCc3ccccc3)c(C#N)cc2c1 | i | -12.9%
Cc1ccc(-n2nnnc2SCC(=O)NC(C(=O)O)(c2ccccc2)c2ccccc2)cc1C | -8.2% | -0.6%
CC1CC(C)CN(C(=O)COC(=O)/C=C/c2ccco2)C1 (centres undefined) | -11.7% | -9.7%
CC1(c2ccccc2)CC2CC(c3ccccc3)N1O2 (centres undefined) | -11.7% | -11.5%
COc1ccccc1CNC(=O)C1CC2Cn3c(nc4cc(Cl)c(Cl)cc43)C2N1C (centres undefined) | i | u
O=C(COC(=O)c1cccnc1Cl)NCCC1=CCCCC1 | -11.8% | 1.5%
COc1cc(OC)c(NC(=S)NCc2ccccc2)cc1Cl | -6.5% | -5.0%
COC(=O)c1ccc(CSc2nc3c([nH]c4ccccc43)c(=O)n2-c2cccc(OC)c2)o1 | -3.4% | 3.8%
NC(=O)Cn1c(=O)n(CCCCCC(=O)NCc2ccccc2)c(=O)c2sccc21 | -7.3% | 1.0%
COC(=O)c1sccc1S(=O)(=O)N(CC(=O)NCc1ccc(C)cc1)c1ccc(C)c(C)c1 | -5.9% | -5.8%
O=C(Nc1ccccc1C(=O)O)c1ccc(NC(=O)C2CCCCC2)cc1 | -16.6% | -10.3%
Cc1cc(NS(=O)(=O)c2ccc(NC(=O)C3CCCCC3)cc2)no1 | -13.4% | -0.4%
O=C(NCC1CC1)c1onc(CSc2ccccc2)c1C(=O)NCC1CC1 | i | -11.0%
CC(Oc1ccc(F)cc1)C(=O)NN (centres undefined) | -13.0% | -2.7%

# (continued)
molecule | VACV mCherry inh | Vaccinia Venus
Cc1nn(CCCC(=O)NCc2ccccc2)c(=O)c2nccn12 | 2.1% | 4.3%
O=C1CN(C(=O)COc2ccccc2F)c2ccccc2N1 | i | -12.5%
O=C(CN1CCCC1)N/N=C/c1ccc(-c2cccc(Cl)c2)o1 | i[1.46 µM] | -19.5%
CC1(CCOCc2ccccc2)NC(=O)NC1=O (centres undefined) | -1.3% | -16.4%
O=C(NC1CCCC1)C(c1ccccn1)N(C(=O)c1csnn1)c1ccccc1Cl (centres undefined) | -10.2% | -9.7%
C[C@]12C[C@@H](O)[C@H](O)CC1=CCC1C2CC[C@]2(C)C(=O)CCC12 (some centres undefined) | -17.0% | -2.1%
CN(C)c1ccc(C(CNC(=O)c2ccc(C#N)cc2)c2c[nH]c3ccccc23)cc1 (centres undefined) | u | -29.7%
C=CCNc1nc2c(c(=O)n(C)c(=O)n2C)n1CC(=C)C | i | -18.7%
CC(=O)N(C1=C(N)C(=O)c2ccccc2C1=O)C(C)C | -18.7% | -21.0%
CCN(CC)CCCNC(=O)c1sc2nc3n(c(=O)c2c1C)CCCCC3 | -2.5% | -4.5%
Cn1cnc([N+](=O)[O-])c1Nc1ccc(O)cc1 | -8.7%[1.46 µM] | -10.7%
COc1cccc(C=C(C#N)C(=O)c2ccccc2)c1 | i | 2.5%
CCN1C(=O)C(O)(c2c(C)[nH]c3ccccc23)c2ccccc21 (centres undefined) | -2.6% | 13.1%
c1ccc(-c2ccc(-c3nc(-c4ccncc4)no3)cc2)cc1 | -11.7% | -4.5%
CCc1c(C)sc(NC(=O)c2cccs2)c1C(=O)OC(C)C | -27.4% | -21.1%
CCOc1ccc(N(CC)S(=O)(=O)N2CCCC(C(=O)Nc3ccc(OC)c(OC)c3)C2)cc1 (centres undefined) | -8.0% | -2.2%
CC1CCN(C(=O)C2CCN(S(=O)(=O)c3cccnc3)CC2)CC1 | -17.0% | -13.0%
CC(=O)NC(c1ccccc1)c1c(O)ccc2ccccc12 (centres undefined) | u | -17.9%
Cc1cn2c(=O)cc(COc3cccc(NC(=O)c4cccc(F)c4)c3)nc2s1 | -5.0% | -10.4%
CSCCC(NS(=O)(=O)c1ccc(Cl)cc1)C(=O)OCC(=O)N(C(C)C)C(C)C (centres undefined) | 0.4% | 1.6%

# Whole records as entered above. Screens in order: VACV mCherry inh	Vaccinia Venus
# CC(=O)NC(c1ccccc1)c1c(O)ccc2ccccc12 (centres undefined) across the screens: u	-17.9%
# C=CCNc1nc2c(c(=O)n(C)c(=O)n2C)n1CC(=C)C across the screens: i	-18.7%

# The list continues:
molecule | VACV mCherry inh | Vaccinia Venus
C=CCn1cc(C(=O)OCC)c(=O)c2ccc(F)cc21 | i | 0.0%
COc1ccc(OC)c2sc(N3CCN(C(=O)C4COc5ccccc5O4)CC3)nc12 (centres undefined) | i | -11.3%
C=CCn1c2ccccc2c2nnc(SCC(=O)O)nc21 | i | -12.0%
CC(=O)Nc1ccc(OS(=O)(=O)c2ccc(Cl)cc2)cc1 | -5.8% | -15.5%
COc1ccc2c(c1)C=C(C(=O)OCc1cccnc1)CO2 | -10.9% | -5.9%
Cc1cc2oc(C(=O)N(Cc3ccccc3F)C3CCS(=O)(=O)C3)c(C)c2cc1Cl (centres undefined) | -11.7% | -9.7%
O=C(NN=Cc1ccccc1O)c1cccc([N+](=O)[O-])c1 | 1.12µM* | u
O=C(CCc1ccccc1)NNC(=O)COc1ccc(Cl)cc1 | i | -10.4%
O=C(NC1CCCCC1)N1CCN(Cc2nc3ccccc3c(=O)[nH]2)CC1 | -14.1% | -5.5%
CCCc1nc2sc3c(c2c(=O)n1NC(=O)CCCl)CCCC3 | x | 7.94µM*
COc1cc(NC(=O)c2cccs2)c(OC)cc1NC(=O)c1cccs1 | -14.7% | -12.9%
COc1cc(NS(=O)(=O)c2ccc(N/C=C(\C=O)c3nc4cc(Cl)ccc4o3)cc2)nc(OC)n1 | -13.9% | -9.4%
COc1cc2c(cc1OC)CN(C(=O)c1ccc(N3CCCC3)c([N+](=O)[O-])c1)CC2 | -6.8% | -24.1%
COc1ccc2c(c1)cc(C(=O)N[C@@H](CCSC)C(=O)N1CCC(C(=O)O)CC1)n2C | i | -16.3%
N#C/C(=C\c1c(N2CCCCCC2)nc2ccccn2c1=O)C(=O)NCc1ccco1 | i[7.34 µM] | -11.1%[7.34 µM]
O=C(NC1CCCC1)C(c1ccccc1)N(Cc1ccco1)C(=O)Cc1cccs1 (centres undefined) | x | -14.7%
COCc1nc2ccccc2n1CCCOc1ccccc1 | x | 6.0%
COC(=O)c1cc2sc(Cl)cc2n1Cc1cc(C)ccc1C | -12.8% | 3.6%
O=C1c2[nH]nc(-c3ccccc3O)c2C(c2cccc(OCc3ccccc3)c2)N1CCO (centres undefined) | -9.0% | -6.0%
CCC(C(=O)OCC(=O)Nc1ccc(C)c(S(=O)(=O)N2CCOCC2)c1)c1ccccc1 (centres undefined) | -0.7% | -14.2%

# In a second layout: 3 of the compounds above
mol: O=C(NC1CCCC1)C(c1ccccc1)N(Cc1ccco1)C(=O)Cc1cccs1 (centres undefined)
  VACV mCherry inh: x | Vaccinia Venus: -14.7%

mol: COCc1nc2ccccc2n1CCCOc1ccccc1
  VACV mCherry inh: x | Vaccinia Venus: 6.0%

mol: COC(=O)c1cc2sc(Cl)cc2n1Cc1cc(C)ccc1C
  VACV mCherry inh: -12.8% | Vaccinia Venus: 3.6%

# Remaining list, next part
molecule | VACV mCherry inh | Vaccinia Venus
CC1(C)CC(=O)C=C(c2ccc3ccccc3c2)C1 | -4.7% | -20.4%
Cc1ccc(S(=O)(=O)Nc2cc3c(C(=O)O)c(C)oc3c3ccccc23)c(C)c1 | -14.5% | 2.7%
C=CCn1c(SCC(=O)Nc2ccc(N(C)C)cc2)nnc1-c1cccc(C)c1 | x | -11.3%
COCC(=O)Nc1nnc(COc2ccc(Cl)cc2)s1 | x | -7.8%
C1=CCC(/C=N/n2cnnc2)CC1 (centres undefined) | x | -11.8%
Cc1ccc(NC(=O)Nc2nnc(Cc3ccc([N+](=O)[O-])cc3)s2)cc1C | u | -29.9%
CCN1CCCc2cc(CN(CCN3CCOCC3)C(=S)Nc3ccc(C)cc3)ccc21 | -9.4% | -1.6%
Cc1ccc2[nH]c(C(=O)Nc3ccccc3)cc2c1 | -14.0% | -17.6%
COCCNC(=S)N/N=C(\C)c1ccc(Cl)c(Cl)c1Cl | u | u
COc1ccc(C(=O)Nc2cc(C)c(NC(=O)c3ccccc3OC)cn2)cc1 | i | 7.6%
CCCC(C(=O)NCc1ccco1)N(C(=O)CNS(=O)(=O)c1ccccc1)c1ccc(OC)cc1 (centres undefined) | i | -8.3%
CCOc1ccc(-c2nnn(CC(=O)Nc3cc(OC)cc(OC)c3)n2)cc1OCC | -12.7% | -27.4%
CCn1c(SCC(=O)Nc2ccc(C(=O)OC)cc2)nc2cccnc21 | -0.8% | -15.9%
CC(=O)N/C(=C\c1ccccc1)C(=O)OCc1ccc(F)cc1 | -14.6% | -13.3%
Cc1ccc(N=C(N(C)C)P(=O)(N(C)C)N(C)C)cc1 | i | -1.3%
O=P(Oc1ccc(-c2ccccc2)cc1)(N1CC1)N1CC1 | -0.1% | -2.0%
CC(C)[C@H](NC(=O)c1ccccc1)C(=O)OCC(=O)c1ccccc1F | i | 3.7%
Cc1nc2ccccc2c(=O)n1NC(=O)Cc1ccc(Br)cc1 | 1.78µM* | -9.0%
CC1Cc2cc(S(=O)(=O)NCc3ccc(Cl)cc3)ccc2N1C(=O)C1CCC1 (centres undefined) | -10.3% | -15.1%
COc1ccc2c(c1OC)C(=O)N(c1nc(SC)n[nH]1)C2=O | i | -19.4%

# Continuation.
# Order of results – VACV mCherry inh	Vaccinia Venus
- O=c1[nH]c(SCCc2ccccc2)nc2c1CCC2
  i	-0.4%
- Cc1ccc(N(CC(=O)NCC2CCCO2)C(=O)CCC(=O)Nc2nccs2)cc1C (centres undefined)
  -20.5%	-5.7%
- CNC(=O)c1ccccc1-c1ccccc1
  -27.5%	-12.0%
- c1ccc(Oc2cccc(OCCCCSc3ncccn3)c2)cc1
  -9.6%	-5.5%
- CN(C)c1ccc(/C=C/c2ccnc3cc(Cl)ccc23)cc1
  -15.5%	46.5%[activator]
- O=C(O/N=C1\C(=O)N(c2ccccc2)c2ccccc21)C1CC1
  7.8%	-3.8%
- C=CCN1CCN(c2ccncc2S(=O)(=O)N2CCN(C)CC2)CC1
  i	-13.0%
- COC(=O)c1ccccc1S(=O)(=O)Oc1ccc(-c2ccc(C(=O)O)cc2)cc1
  3.1%	7.8%
- COC(=O)c1ccc(-c2cc3onc(-c4ccccc4)c3c(=O)n2C)cc1
  -7.5%	-7.9%
- Cc1ccccc1N(CC(=O)NCC1CCCO1)C(=O)CNS(=O)(=O)c1ccc(F)cc1 (centres undefined)
  -9.2%	-13.9%

# Additional entries.
# Order of results – VACV mCherry inh	Vaccinia Venus
- COc1ccccc1C(CCN(Cc1ccccc1)C(C)=O)c1ccco1 (centres undefined)
  u	-12.3%
- CC1(C)C2CCC1(CS(=O)(=O)NCCc1c[nH]c3ccccc13)C(=O)C2 (centres undefined)
  u	-7.1%
- NC(=O)CC(NC(=O)Cc1cccc2ccccc12)c1ccc(N2CCCCCCC2)c([N+](=O)[O-])c1 (centres undefined)
  -12.6%	u
- O=C(NNC(=O)c1ccc2ccccc2c1)c1cccc(F)c1
  i	2.1%
- COc1cc2nc(CN3CCOCC3)n(CC(=O)N3CCCCCC3)c(=O)c2cc1OC
  -20.6%	3.1%
- COc1cc(C(c2sc3nc(C)nn3c2O)N2CC(C)CC(C)C2)cc(OC)c1OC (centres undefined)
  -28.1%	-7.6%
- O=C(CSc1nc2ccccc2n1S(=O)(=O)c1ccccc1)N1CCCC1
  -19.3%	-5.4%
- Cc1ccc(O)c(NC(=O)C2CCCN2C(=O)OCc2ccccc2)c1 (centres undefined)
  u	u
- CCCCNC(=O)C1(C)CCN1C(=O)c1ccccc1Br (centres undefined)
  u	-14.5%
- CC(=O)Nc1ccc(NC(=O)Nc2cccc(C)c2C)cc1
  i	-1.6%

# Next section.
# Order of results – VACV mCherry inh	Vaccinia Venus
- Cc1cc(C)cc(NS(=O)(=O)c2cc3[nH]c(=O)c(=O)[nH]c3cc2C)c1
  -6.1%&6.5%	-5.4%&-3.5%
- Cn1nc(-c2ccc(C(=O)Nc3ccc(OC(F)(F)F)cc3)cc2)c2ccccc2c1=O
  u	u
- N#CC1C(=O)NC(=O)C(C#N)C12CCCC2 (centres undefined)
  2.1%	13.8%
- CCOC(=O)c1cc(-c2ccccc2)sc1N
  -13.4%	-2.8%
- CCCN1C/C(=C/c2ccc3c(c2)OCO3)C(=O)/C(=C/c2ccc3c(c2)OCO3)C1
  u	u
- O=C(Cc1csc(-c2ccccc2)n1)NCc1ccc(F)cc1
  -13.6%	-4.3%
- Cc1ccc(-n2nnnc2SCc2nnc(-c3ccccc3Br)o2)cc1
  i	-20.2%
- O=C(CCN1C(=O)c2ccccc2C1=O)Nc1nc2ccccc2s1
  i	-0.4%
- COc1ccc(-c2ccc(C(=O)NCC(C)C)c3occc23)c(C)c1
  6.7%	-18.2%
- Cc1nnc(SCc2ccc(C(=O)O)cc2)s1
  -7.8%	-4.8%
- COc1ccc(NC(=O)c2nc(SCc3ccc(F)cc3)ncc2Cl)cc1
  -5.2%	-9.6%
- Cc1c(Cl)c([N+](=O)[O-])nn1CC(=O)NC1CCCCC1
  x	-2.4%

# Compounds were not picked by outcome; any-hit rate near 0.88%.
